TRPML1 blocker = blocks the human TRPML1 channel | Q9GZU1 | TRPML1-inducible cells, Ca2+ dye fluorescence, FDSS; active compounds read low; inhibition of EC80 agonist-evoked calcium signal | activity change, negative = inhibition, % (concentration not given with the values) | actives 0.02% (n = 390,000) | AID 624415; in the data active means activity change below about -50%; inconclusive means about -30% to -50%; inactive means above about -30%;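 further: stimulus is agonist 54-4 at its EC80 concentration; on the % scale 0 is the no-effect control and ±100 the full control effect; the text of the record puts the active cut at -80%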
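Calcium fluorescence in TRPML1-DL cells induced overnight with Tet: a 110 s read after compound pin addition, then a 110 s antagonist read after challenge with 54-4 at 4 uM final (EC80).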
D2 PAM = potentiates the human D2 dopamine receptor allosterically. DiscoveRx D2 beta-arrestin cells, luminescence, 90 min; 100% = 57 uM dopamine signal. potentiation, % (test concentration not listed). actives 0.23% (n = 360,000). AID 624464; active = potentiation of 50% or more; inconclusive = 30% to 50%; inactive = 30% or less;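 further: compound concentration not given in the record; tested on top of an EC20 dose of dopamine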
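PathHunter beta-arrestin assay in DiscoveRx D2 cells. Compounds were added with an EC20 of dopamine (50 nM final) for 90 min at 37 deg C. Luminescence was read 1 h after detection reagent, with 57 uM dopamine as the EC100 control.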
TRPV1 potentiator = enhances activation of the human vanilloid receptor TRPV1; Q8NER1; TRPV1-expressing cells, Fluo-8 calcium influx, capsaicin EC20 potentiation; host cell line not named in the record; control for the full effect not named in the record; potentiation, % at 8.33 µM; actives 0.02% (n = 320,000); AID 540277; active means potentiation above 80%; inconclusive means 30% to 80%; inactive means below 30%; further: 0% is about no effect
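Cells expressing TRPV1 were dye-loaded with Fluo-8 and read kinetically: 10 s baseline, 3 min after compound (agonist portion), then 2 min after EC20 capsaicin (allosteric enhancer portion). Calcium-bound dye fluorescence at 480/520 nm.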
Six1-Eya2 blk = blocks human Six1 binding to Eya2 | activity change, % (test concentration not listed) | AID 651725 | actives 0.56% (n = 360,000) | AlphaScreen GST-Six1/His-Eya2 binding, biochemical; active compounds read low; control for the full effect not named in the record | Q15475+O00167; in the data active = activity change below about -65%; inconclusive = about -30% to -65%; inactive = above about -30%; further: on the % scale 0 is the no-effect control and ±100 the full control effect
Target sequence (O00167 whole entry, looked up): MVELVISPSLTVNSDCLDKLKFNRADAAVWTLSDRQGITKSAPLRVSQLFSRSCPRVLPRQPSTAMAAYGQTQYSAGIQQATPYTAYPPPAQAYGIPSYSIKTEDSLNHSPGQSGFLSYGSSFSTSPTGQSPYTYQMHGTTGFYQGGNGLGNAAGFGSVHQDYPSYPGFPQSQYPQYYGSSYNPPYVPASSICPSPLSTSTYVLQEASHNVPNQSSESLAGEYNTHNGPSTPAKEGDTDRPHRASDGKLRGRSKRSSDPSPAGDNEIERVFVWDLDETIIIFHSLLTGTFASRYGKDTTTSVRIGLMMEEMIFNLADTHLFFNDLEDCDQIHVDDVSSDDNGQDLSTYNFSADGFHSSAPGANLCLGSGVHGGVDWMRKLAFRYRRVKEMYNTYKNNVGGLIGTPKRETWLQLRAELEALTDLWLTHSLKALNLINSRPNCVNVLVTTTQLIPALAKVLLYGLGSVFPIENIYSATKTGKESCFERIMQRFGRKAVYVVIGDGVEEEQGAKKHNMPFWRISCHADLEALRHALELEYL
Target sequence (Q15475 whole entry, looked up): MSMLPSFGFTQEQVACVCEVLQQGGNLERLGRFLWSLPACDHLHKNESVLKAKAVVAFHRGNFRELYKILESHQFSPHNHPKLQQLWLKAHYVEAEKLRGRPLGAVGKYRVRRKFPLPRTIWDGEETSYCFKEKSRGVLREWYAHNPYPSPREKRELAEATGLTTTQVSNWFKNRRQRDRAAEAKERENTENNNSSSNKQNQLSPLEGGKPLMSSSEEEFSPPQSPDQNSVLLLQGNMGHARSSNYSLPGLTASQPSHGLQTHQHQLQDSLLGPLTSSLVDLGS
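Compounds are tested against tagged Six1 and Eya2 proteins bridged by glutathione donor and nickel acceptor beads; after a one-hour incubation at 37 °C without light, AlphaScreen emission is recorded.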
CtBP-E1A blk = CtBP/E1A binding inhibition | AlphaScreen GST-E1A/His-CtBP binding, 1536-well; active compounds read low; control for the full effect not named in the record | activity change, % (no concentration beside the values) | actives 0.49% (n = 340,000); in the data active means activity change below about -65%; inconclusive means about -30% to -65%; inactive means above about -30%; further: on the % scale 0 is the no-effect control and ±100 the full control effect
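Homogeneous bead-based format: GST-tagged E1A captured on glutathione donor beads, His-tagged CtBP on nickel acceptor beads; compounds precede bead addition by 2 h at 37 °C.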
TRPML1 agonist = agonists of human TRPML1 channel | activation, % (concentration not given with the values) | actives 0.12% (n = 410,000) | Q9GZU1 | TRPML1-expressing cells, Ca2+ dye fluorescence, FDSS; host cell line not named in the record; reference of the full effect not given here; in the data active = activation above about 50%; inconclusive = about 30% to 50%; inactive = below about 30%; further: 0% is about no effect; the text of the record puts the active cut at 80%
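Agonist activity was taken from a 110 s kinetic Ca2+ dye read on the FDSS after pinning compounds onto TRPML1-DL cells. The cells were seeded at 1,500/well with Tet inducer, incubated about 16 h, then dye-loaded at room temperature.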
An asterisk follows results filed as active.

Screening COc1cccc(N2CCN(C(=O)CCCCCNc3nc(=S)[nH]c4ccccc34)CC2)c1 returned TRPML1 blocker 20, D2 PAM 0, TRPV1 potentiator 5, Six1-Eya2 blk inconclusive, CtBP-E1A blk inconclusive and TRPML1 agonist -0.4.
O=C(Cc1cccs1)NCc1ccc(F)cc1 was read as TRPML1 blocker 12, D2 PAM -12, TRPV1 potentiator -32, Six1-Eya2 blk 2, CtBP-E1A blk 12 and TRPML1 agonist 3.4.
`CC(C)C(NC(=O)c1ccc(F)cc1)C(=O)NCC1CCCO1` (stereo not given) gave TRPML1 blocker -12, D2 PAM -11, TRPV1 potentiator -1, Six1-Eya2 blk 3 and TRPML1 agonist -0.2.
COc1ccc(-c2nnc(-c3ccccc3O)o2)cc1 was read as TRPML1 blocker 13, D2 PAM 1, TRPV1 potentiator 9, Six1-Eya2 blk 3, CtBP-E1A blk -4 and TRPML1 agonist 2.1.
For CCCCOC(=O)c1ccc(NC(=O)C(=O)NCc2cccnc2)cc1 the results were TRPML1 blocker -1, D2 PAM 2, TRPV1 potentiator 9, Six1-Eya2 blk 15, CtBP-E1A blk 3 and TRPML1 agonist -0.4.
Screening O=C(c1ccccc1NS(=O)(=O)c1ccc(Cl)cc1)N1CCc2ccccc21 returned TRPML1 blocker 53, D2 PAM -12, TRPV1 potentiator 1, Six1-Eya2 blk 5, CtBP-E1A blk -3 and TRPML1 agonist -0.9.
For COc1ccc(/C=C/CN2CCN(CC(C)C)C(CCO)C2)cc1 (stereo not given) the results were TRPML1 blocker -7, D2 PAM 6, TRPV1 potentiator -2, Six1-Eya2 blk -10, CtBP-E1A blk -18 and TRPML1 agonist -0.4.
Screening COc1cccc(/C=N/NC(=O)CNC(=O)c2ccco2)c1O returned TRPML1 blocker 22, D2 PAM -6, TRPV1 potentiator -2, Six1-Eya2 blk -84*, CtBP-E1A blk inconclusive and TRPML1 agonist -0.3.
`CCOC(=O)C1(C)CCCN(C(=O)c2ccccc2C(F)(F)F)C1` (stereo not given) gave TRPML1 blocker -15, D2 PAM -13, Six1-Eya2 blk -1, CtBP-E1A blk 1 and TRPML1 agonist -0.3.
Screening COCCN1C(=O)N[C@@H](c2ccco2)C(C(=O)OC)=C1C returned TRPML1 blocker -18, D2 PAM -28, Six1-Eya2 blk 2, CtBP-E1A blk -7 and TRPML1 agonist -0.4.
Cc1cc(C(=O)NNC(=S)NCC2CCCO2)cs1 (stereo not given) was read as TRPML1 blocker -1, D2 PAM 11, TRPV1 potentiator 28, Six1-Eya2 blk 5, CtBP-E1A blk 8 and TRPML1 agonist 0.4.
Screening Cc1ccc(S(=O)(=O)CCC(=O)OCCOc2cccc(Br)c2)cc1 returned TRPML1 blocker 7, D2 PAM -12, TRPV1 potentiator -3, Six1-Eya2 blk 20 and TRPML1 agonist -1.6.
For COc1ccc(-c2cc(-c3ccccc3)nc(NN)n2)cc1OC the results were TRPML1 blocker 25, D2 PAM -17, TRPV1 potentiator -12, Six1-Eya2 blk -9, CtBP-E1A blk -27 and TRPML1 agonist 0.7.
For CCCNC(=O)C1(C)CCCN(Cc2ccsc2)C1 (stereo not given) the results were D2 PAM -7, Six1-Eya2 blk 1, CtBP-E1A blk 3 and TRPML1 agonist -0.2.
Screening CN(C)c1ccc(Cc2cc3c(O)ccc(O)c3cc(Cc3ccc(N(C)C)cc3)c2=O)cc1 returned TRPML1 blocker 18, D2 PAM inconclusive, Six1-Eya2 blk inconclusive, CtBP-E1A blk -5 and TRPML1 agonist 1.0.
For Cc1ccccc1OCCC(=O)OCC(=O)Nc1ccc(N2CCOCC2)cc1 the results were TRPML1 blocker -7, D2 PAM -8, TRPV1 potentiator -22, Six1-Eya2 blk 3, CtBP-E1A blk 6 and TRPML1 agonist -0.4.
Screening COc1ccccc1NS(=O)(=O)c1cc(NC(=O)Cc2n[nH]c(=O)c3ccccc23)ccc1Cl returned TRPML1 blocker 10, D2 PAM -16, Six1-Eya2 blk inconclusive, CtBP-E1A blk inconclusive and TRPML1 agonist 1.5.
For O=C(NCCOc1ccc(F)cc1)C1CCC(=O)N(CCCN2CCCC2=O)C1 (stereo not given) the results were TRPML1 blocker 2, D2 PAM -3, TRPV1 potentiator inconclusive, Six1-Eya2 blk 20, CtBP-E1A blk 0 and TRPML1 agonist -1.1.
`COC(=O)C1CCN(C(=O)c2oc3c(Cl)cc(C)cc3c2C)CC1` gave TRPML1 blocker -22, D2 PAM -13, TRPV1 potentiator -7, Six1-Eya2 blk -1 and TRPML1 agonist 1.7.
Screening COc1cc(NC(=O)c2onc(C)c2Cl)c(OC)cc1Cl returned TRPML1 blocker -18, D2 PAM -1, TRPV1 potentiator 10, Six1-Eya2 blk -4, CtBP-E1A blk 4 and TRPML1 agonist -0.5.

Reprinted from the entries so far, 5 compounds:
Cc1cc(C(=O)NNC(=S)NCC2CCCO2)cs1 (stereo not given) was read as TRPML1 blocker -1, D2 PAM 11, TRPV1 potentiator 28, Six1-Eya2 blk 5, CtBP-E1A blk 8 and TRPML1 agonist 0.4.
Screening Cc1ccc(S(=O)(=O)CCC(=O)OCCOc2cccc(Br)c2)cc1 returned TRPML1 blocker 7, D2 PAM -12, TRPV1 potentiator -3, Six1-Eya2 blk 20 and TRPML1 agonist -1.6.
For COc1ccc(-c2cc(-c3ccccc3)nc(NN)n2)cc1OC the results were TRPML1 blocker 25, D2 PAM -17, TRPV1 potentiator -12, Six1-Eya2 blk -9, CtBP-E1A blk -27 and TRPML1 agonist 0.7.
For CCCNC(=O)C1(C)CCCN(Cc2ccsc2)C1 (stereo not given) the results were D2 PAM -7, Six1-Eya2 blk 1, CtBP-E1A blk 3 and TRPML1 agonist -0.2.
Screening CN(C)c1ccc(Cc2cc3c(O)ccc(O)c3cc(Cc3ccc(N(C)C)cc3)c2=O)cc1 returned TRPML1 blocker 18, D2 PAM inconclusive, Six1-Eya2 blk inconclusive, CtBP-E1A blk -5 and TRPML1 agonist 1.0.

(continued)
Screening CCCCCn1nc(C(=O)N(CC(C)C)c2c(N)n(CCCC)c(=O)[nH]c2=O)c2ccccc2c1=O returned TRPML1 blocker -14, D2 PAM -5, TRPV1 potentiator -13, Six1-Eya2 blk 12, CtBP-E1A blk 6 and TRPML1 agonist -0.3.
O=C(O)c1cccnc1SCC(=O)C12CC3CC(CC(C3)C1)C2 was read as TRPML1 blocker -8, D2 PAM -9, TRPV1 potentiator 5, Six1-Eya2 blk 2, CtBP-E1A blk 4 and TRPML1 agonist -0.2.
`CC(C)(C)CC(C)(C)N=C1NS(=O)(=O)c2cc([N+](=O)[O-])ccc21` gave TRPML1 blocker 64, D2 PAM 29, TRPV1 potentiator -8, Six1-Eya2 blk -11, CtBP-E1A blk 0 and TRPML1 agonist 0.7.
For COC(=O)CCC(=O)Nc1cccc(C(=O)Nc2cccc(Cl)c2)c1 the results were TRPML1 blocker 0, D2 PAM -3, TRPV1 potentiator -5, Six1-Eya2 blk 3, CtBP-E1A blk -2 and TRPML1 agonist 7.0.
Screening CCCS(=O)(=O)N1CCCC(C(=O)Oc2ccc(Cl)cc2)C1 (stereo not given) returned TRPML1 blocker 10, D2 PAM -6, TRPV1 potentiator -21, Six1-Eya2 blk -5, CtBP-E1A blk 5 and TRPML1 agonist -1.0.
Screening O=C(NCc1cccnc1)C1CCN(S(=O)(=O)c2cccc(C(F)(F)F)c2)CC1 returned TRPML1 blocker -10, D2 PAM -1, TRPV1 potentiator -12, Six1-Eya2 blk 5, CtBP-E1A blk 5 and TRPML1 agonist -0.3.
For O=S(=O)(NC1CC1)c1ccc(S(=O)(=O)N(Cc2ccccn2)C2CCCC2)cc1 the results were TRPML1 blocker 27, D2 PAM -14, TRPV1 potentiator 5, Six1-Eya2 blk 0, CtBP-E1A blk 16 and TRPML1 agonist 0.3.
O=C(CCn1nc(-c2ccccc2)c2ccccc2c1=O)NN1CCOCC1 was read as TRPML1 blocker -4, D2 PAM -2, TRPV1 potentiator -7, Six1-Eya2 blk 9, CtBP-E1A blk 6 and TRPML1 agonist -0.2.
For CCOCC(=O)Nc1ccc2c(c1)OCCO2 the results were TRPML1 blocker -1, D2 PAM -15, TRPV1 potentiator -10, Six1-Eya2 blk -15, CtBP-E1A blk -4 and TRPML1 agonist -0.4.
Screening COc1ccc(NC(=O)c2cc(C3CCCCN3C(=O)OCCF)on2)c(C)c1 (stereo not given) returned D2 PAM -8, Six1-Eya2 blk -1, CtBP-E1A blk 5 and TRPML1 agonist -0.7.
`CCOc1ccc(NC(=O)c2cc3ccccc3cc2OC)cc1` gave TRPML1 blocker 47, D2 PAM -3, TRPV1 potentiator 6, Six1-Eya2 blk -20, CtBP-E1A blk 11 and TRPML1 agonist 0.4.
For O=C(NCCN1CCOCC1)c1cc(-c2ccc(Cl)s2)nc2ccccc12 the results were TRPML1 blocker -10, D2 PAM -4, TRPV1 potentiator -4, Six1-Eya2 blk -4, CtBP-E1A blk 8 and TRPML1 agonist -0.1.
`COc1ccc(NC(=O)Nc2nnc(C(C)(C)C)s2)cc1` gave TRPML1 blocker 4, D2 PAM -15, TRPV1 potentiator -14, Six1-Eya2 blk -1 and TRPML1 agonist 1.9.
For Cc1c(/C=N/O)c2ccccn2c1C=O the results were TRPML1 blocker 17, D2 PAM 17, TRPV1 potentiator -2, Six1-Eya2 blk -13 and TRPML1 agonist 1.7.
Cc1cccc(N=Nc2c(C)c(C#N)c(O)[nH]c2=O)c1 was read as TRPML1 blocker 7, D2 PAM 1, TRPV1 potentiator 19, Six1-Eya2 blk 7, CtBP-E1A blk 2 and TRPML1 agonist 2.9.
CSC1=N/C(=C\C=C\c2cccs2)C(=O)S1 was read as TRPML1 blocker -1, D2 PAM -10, TRPV1 potentiator -3, Six1-Eya2 blk inconclusive, CtBP-E1A blk -8 and TRPML1 agonist 1.3.
Screening COC(=O)N/N=C/c1ccc([N+](=O)[O-])s1 returned TRPML1 blocker -11, D2 PAM 22, TRPV1 potentiator -9, Six1-Eya2 blk 4, CtBP-E1A blk 0 and TRPML1 agonist 0.0.
`COc1ccc(/C=N/Nc2cc(N(C)C)nc(N(C)C)n2)cc1` gave TRPML1 blocker -11, D2 PAM -39, TRPV1 potentiator 16, Six1-Eya2 blk -22, CtBP-E1A blk -16 and TRPML1 agonist -0.2.
CCOC(=O)C1CCCN(S(=O)(=O)c2cccs2)C1 (stereo not given) was read as TRPML1 blocker 18, D2 PAM -5, TRPV1 potentiator -3, Six1-Eya2 blk -2, CtBP-E1A blk 15 and TRPML1 agonist 0.1.
`O=C(COc1ccc(Cl)cc1Cl)NN=C1c2ccccc2-c2ccccc21` gave TRPML1 blocker 6, D2 PAM 4, TRPV1 potentiator 16, Six1-Eya2 blk 0, CtBP-E1A blk -4 and TRPML1 agonist 0.8.
Screening COc1ccc(Nc2nnc(SCC(=O)c3cc(C)n(CC4CCCO4)c3C)s2)cc1 (stereo not given) returned TRPML1 blocker 15, D2 PAM -2, TRPV1 potentiator 12, Six1-Eya2 blk inconclusive, CtBP-E1A blk inconclusive and TRPML1 agonist -0.2.
COc1ccccc1Cc1c(-c2ccc(Cl)cc2)nc2c(Cl)cc(C(F)(F)F)cn12 was read as Six1-Eya2 blk 1, CtBP-E1A blk 3 and TRPML1 agonist -0.3.
`COc1cccc(CNc2nc(NC(C)C)nc3ccsc23)c1` gave D2 PAM -17, Six1-Eya2 blk 1, CtBP-E1A blk -22 and TRPML1 agonist -0.4.

Assay outcomes as filed in PubChem.
